RE007 growth inh = less growth of the S. pombe RE007 Vpr strain | S. pombe RE007 Vpr strain, BacTiter-Glo ATP luminescence, 24 h; control for the full effect not named in the record | Potency, µM (top dose mostly 92.2 µM), inactives show top-dose activity change, negative = less growth | actives 0.21% (n = 360,000); active = well fitted falling curve with a large enough effect; inconclusive = small, poorly fitted or top-dose-only effect; inactive = no such curve, though single readings can be large or run the other way;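 further: on the % scale 0 is the no-effect control and ±100 the full control effect; nearly all actives have a fitted effect of over 50% in size; the assay follows cell death caused by Vpr and the record does not say whether a fall means rescue or toxicity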
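Fission yeast strain RE007, carrying one chromosomally integrated HIV-1 vpr copy, was seeded at OD 0.01 in PMG+AL medium with 23 nL pinned compound. After 24 h at 30 °C and 99% humidity, viability was read by BacTiter-Glo luminescence.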
Cruzain inh Det = cruzain (T. cruzi) inhibition with detergent; purified cruzain, Z-FR-AMC fluorescence, 0.01% Triton; AID 1478; Potency, µM, for the others: max response, negative = inhibition, usual class: inhibitors; actives 0.43% (n = 200,000);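 further: plate controls were neutral wells for no effect and buffer without enzyme for full effect; nearly all actives have a fitted effect of over 40% in size; top concentration of the series not given in the record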
Target sequence (P25779 123-467 limits assumed): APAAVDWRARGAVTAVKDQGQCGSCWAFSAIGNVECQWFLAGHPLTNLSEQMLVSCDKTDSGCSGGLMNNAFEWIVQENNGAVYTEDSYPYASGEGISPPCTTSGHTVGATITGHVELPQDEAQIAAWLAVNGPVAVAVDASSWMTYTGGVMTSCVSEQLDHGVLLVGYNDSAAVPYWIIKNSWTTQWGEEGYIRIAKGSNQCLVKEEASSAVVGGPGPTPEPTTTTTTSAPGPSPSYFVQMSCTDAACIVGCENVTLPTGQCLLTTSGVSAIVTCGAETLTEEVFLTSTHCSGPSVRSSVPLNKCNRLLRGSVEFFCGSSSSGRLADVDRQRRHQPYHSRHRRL
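In this qHTS format, compounds are incubated with 1.5 nM cruzain for 15 min at room temperature before 2 uM Z-FR-AMC is added. Release of AMC is followed at 360/450 nm, and progress is taken as the 60 s fluorescence difference.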
SARS PLpro yeast = SARS-CoV PLP inhibition in yeast. S. cerevisiae expressing SARS-CoV PLpro, growth rescue; control for the full effect not named in the record. Potency, µM (titrated, usually from 32.9 µM), for the others: top-dose activity, positive = growth rescue. actives 0.19% (n = 330,000); active means well fitted rising curve with a large enough effect; inconclusive means small, poorly fitted or top-dose-only effect; inactive means no such curve, though single readings can be large or run the other way; further: 0% is about no effect; nearly all actives have a fitted effect of over 55% in size; growth read by luminescence after 48 h
Marburg entry inh = Marburg virus entry inhibition; Potency, µM (doses to about 37.8 µM), inactives show at the highest dose activity change, negative = inhibition, usual class: inhibitors; Marburg virus pseudotyped entry inhibition, cell reporter; control for the full effect not named in the record; about a third of the inactives were read at about 46 µM; actives 1.8% (n = 300,000); active = well fitted inhibition curve with a large enough effect; inconclusive = small, poorly fitted or top-dose-only effect, or effect the other way; inactive = flat fitted curve, though single readings scatter; tested in HEK293 cells; about a fifth of its hits are not listed in these tables; further: on the % scale 0 is the no-effect control and ±100 the full control effect; luciferase read-out
Cruzain inh noDet = blocks cruzain activity in detergent-free assay. purified cruzain, Z-FR-AMC fluorescence, no detergent. Potency, µM, for the others: max response, negative = inhibition, actives largely listed as inhibitors. actives 2.3% (n = 200,000). P25779;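 further: plate controls were enzyme without inhibitor for no effect and buffer without enzyme for full effect; nearly all actives have a fitted effect of over 40% in size; top concentration of the series not given in the record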
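Detergent-free condition (0.00005% Triton X-100) in acetate buffer pH 5.5 with DTT. 1.5 nM enzyme and compound were pre-mixed 15 min, then 2 uM Z-FR-AMC substrate added; reaction progress from fluorescence change between first and third reads (60 s).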
LASV entry inh = blocks Lassa virus binding to or entry into cells | actives 1.2% (n = 300,000) | Lassa virus pseudotype entry inhibition, cell reporter; control for the full effect not named in the record | Potency, µM (top dose mostly 37.9 µM), for the others: at the highest dose activity change, negative = inhibition, hits mostly inhibitors; active means well fitted inhibition curve with a large enough effect; inconclusive means small, poorly fitted or top-dose-only effect, or effect the other way; inactive means flat fitted curve, though single readings scatter; tested in HEK293 cells; further: on the % scale 0 is the no-effect control and ±100 the full control effect; nearly all actives have a fitted effect of over 50% in size; luciferase read-out
2A StopGo = FMDV 2A StopGo reporter, luciferase signal | Potency, µM (highest dose often 57.9 µM), for the others: top-dose signal change, negative = less light | actives 1.2% (n = 410,000) | human cells with a luciferase reporter of 2A StopGo recoding; control for the full effect not named in the record; active = well fitted falling curve with a large enough effect; inconclusive = small, poorly fitted or top-dose-only effect; inactive = no such curve, though single readings can be large or run the other way; tested in HEK293T cells; further: on the % scale 0 is the no-effect control and ±100 the full control effect; nearly all actives have a fitted effect of over 45% in size; luciferase light after 4 h
NS1 function inh = inhibitors of influenza NS1 protein function | S. cerevisiae slowed by influenza A NS1, growth recovery by OD600 | actives 0.4% (n = 270,000) | Potency, µM (top dose mostly 46.1 µM), for inactives: at the top dose activity, positive = more growth; active means well fitted rising curve with a large enough effect; inconclusive means small, poorly fitted or top-dose-only effect; inactive means no such curve, though single readings can be large or run the other way; further: nearly all actives have a fitted effect of over 50% in size
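S. cerevisiae expressing influenza A NS1, grown in glucose, washed, then diluted 1:100 into pH 6.0 -URA galactose medium with 23 nl compound. Growth recovery read as OD600; NS1-free strain serves as control.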
* = called active by the depositor; ? = inconclusive; nt = no result given; & = joins results of further samples; [ ] = dose if it differs, or a comment. Unless noted, the call rests on the fitted dose curve; in most records, active means well fitted curve in the direction sought with a large enough effect; inconclusive means small, poorly fitted or top-dose-only effect, or another doubt; inactive means no such curve, though single readings can be large; an effect the other way counts as inactive or inconclusive. Potency means the concentration at half of the fitted maximal effect. Compounds were not picked by outcome; any-hit rate near 4.7%.

SMILES | RE007 growth inh | Cruzain inh Det | SARS PLpro yeast | Marburg entry inh | Cruzain inh noDet | LASV entry inh | 2A StopGo | NS1 function inh
Cc1c(Br)c(-c2n[nH]c(=S)n2Cc2ccco2)nn1C | 17% | -2.5% | 9% | 13% | -11% | -15% | 0% | 4%
COc1ccc(CN2CCN(Cc3ccc(OC)c(OC)c3OC)CC2)cc1 | 0% | nt | -1% | ? | nt | -5% | -22% | 0%
O=C(NCCCO)c1ccc(CSc2nc3ccccc3c(=O)[nH]2)cc1 | -2% | nt | 0% | 0%[46.1 µM] | nt | -29% | ? | -1%
CSc1ccc(C2C(C(=O)Nc3ccccc3)=C(C)Nc3nc4ccccc4n32)cc1 (centres undefined) | nt | -1.3% | nt | -29%[46.1 µM] | -7% | -1%[46.1 µM] | -22% | nt
Cc1nn(C)cc1CNC(=O)Nc1ccc(Cl)c(Cl)c1 | -3% | -11% | 1% | 18%[46.1 µM] | -7% | ? | 46%[activator] | -56%
COc1ccc(S(=O)(=O)NCCc2nnc3ccc(SCC(=O)Nc4cc(C)cc(C)c4)nn23)cc1 | nt | -3.0% | nt | nt | ? | 0%[46.1 µM] | -12% | nt
O=c1cc(NCc2ccccc2)nc2ccccn12 | 14% | nt | 2% | ? | nt | 1% | 31%[activator] | 0%
Nc1ccc(N2CCCCC2)cc1N1CCCCC1 | -19% | -1.5% | -11% | ? | -14% | ? | ? | 9%
COc1cc(/C=C2/C(=O)NN(c3ccc(F)cc3)C2=O)cc([N+](=O)[O-])c1O | 16% | nt | 4% | 3.5µM* | nt | 4% | -22% | 20%
COC(=O)c1ccc(-c2ccc([C@H]3[C@H]4C=CC[C@@H](C)[C@@H]4C(=O)N3Cc3ccccc3)c(F)c2)cc1 | -24% | nt | -5% | nt | nt | nt | ? | 2%
CCC1(CC)Cc2ccccc2C2=C(C(=O)N3CCCCC3)C(=O)C(=O)N21 | -3% | nt | 4% | nt | nt | nt | 2% | 6%
COc1ccc(/C=C(\NC(=O)c2ccco2)C(=O)NCCc2nc3ccccc3[nH]2)cc1 | -2% | nt | 1% | nt | nt | nt | -10% | 4%
COC(=O)c1cn(Cc2cc(OC)ccc2OC)cc(F)c1=O | -10% | nt | -2% | -2% | nt | 2% | 11% | -4%
Cc1cc(C(=O)Nc2ccc3c(c2)OCCO3)c(C)o1 | -15% | 0.3% | -7% | ? | 1% | ? | 3% | -19%
CC(=O)Nc1ccc(N2C(=O)CSC2c2ccc([N+](=O)[O-])cc2)cc1 (centres undefined) | -7% | nt | 0% | 9%[46.1 µM] | nt | -28%[46.1 µM] | 29% | -2%
CCC(C)[C@H](NC(=O)[C@@H]1Cc2ccccc2CN1C(=O)OC(C)(C)C)C(=O)NCC1CCC(C(=O)O)CC1 (some centres undefined) | 7% | nt | 1% | -2%[46.1 µM] | nt | 14% | -6% | 5%
O=C(O)c1ccccc1OCCOc1ccccc1 | 4% | 0.7% | 7% | 9% | 4% | 4% | 5% | -58%
COc1ccc(NC(=O)Nc2ccccc2SC)cc1 | -15% | nt | -2% | ? | nt | 2%[46.1 µM] | 32%[activator] | -8%
CC(NC(=O)C1CCCC1)c1ccccc1 (centres undefined) | -25% | nt | nt | 1%[46.1 µM] | nt | 28%[46.1 µM] | 7% | nt
CC1CCC(NC(=O)CSc2nnc(-c3cccnc3)o2)CC1 (centres undefined) | 0% | nt | -6% | 15% | nt | -7% | -23% | nt
Cc1onc(-c2c(Cl)cccc2Cl)c1C(=O)N=C(N)N1CCCC1 | -18% | nt | 1% | ? | nt | -9%[46.1 µM] | -9% | -2%
O=C(OCC(=O)N1CCc2ccccc2C1)c1ccc(N2CCOCC2)c([N+](=O)[O-])c1 | -3% | -6.9% | -2% | 17% | 5% | 17% | -7% | -17%
Brc1ccccc1Cn1c(-c2cncs2)nc2ccccc21 | 12% | -5.1% | -4% | nt | 14% | nt | ? | -105%
CCOC(=O)C(NC(=O)c1ccccc1Cl)(Nc1sc2c(c1C(N)=O)CCC2)C(F)(F)F (centres undefined) | 7% | -5.6% | 13% | 2% | 12% | nt | ? | 12%
C/C=C/c1ccc(OCCOCCOc2cccc3cccnc23)c(OC)c1 | -5% | -5.4% | ? | -24% | ? | -18% | 0% | -22%
Other entries follow.
SMILES | RE007 growth inh | Cruzain inh Det | SARS PLpro yeast | Marburg entry inh | Cruzain inh noDet | LASV entry inh | 2A StopGo | NS1 function inh
COc1ccc(CNC(=O)CN(C)S(=O)(=O)c2ccc3c(c2)n(C)c(=O)c(=O)n3C)cc1 | -14% | nt | ? | -19%[46.1 µM] | nt | 2%[46.1 µM] | 1% | -1%
COc1ccc(-n2c(COc3cccc(C)c3)n[nH]c2=S)cc1 | 1% | nt | -2% | -11%[46.1 µM] | nt | -11%[46.1 µM] | -1% | 24%
Cc1nnc(SCC(=O)NCc2ccco2)n1Cc1ccccc1 | 17% | 7.4% | -3% | -6% | -1% | 11% | -12% | 7%
Cc1cccc(CN2C(=O)NC(c3ccccc3)(c3ccccc3)C2=O)c1 | 19% | nt | -6% | ? | nt | ? | -25% | -30%
CCOC(=O)c1c(C)nc2c(c1-c1ccc(Cl)cc1)C(=O)CC(C)(C)C2 | 8% | -7.1% | 10% | ? | ? | ? | 0% | -17%
S=C(NCCc1ccccc1)N1CCc2ccccc2C1 | -13% | nt | -3% | 2%[46.1 µM] | nt | 4% | 43%[activator] | -8%
CC(C)CN(C(=O)COC(=O)c1ccc2c(c1)OCCO2)c1c(N)n(Cc2ccccc2)c(=O)[nH]c1=O | 1% | nt | -7% | -1% | nt | -24% | -1% | nt
O=C(N/N=C/c1ccc(Cl)c([N+](=O)[O-])c1)c1cnccn1 | -15% | -3.3% | 21% | ? | 2% | 0% | 13% | -6%
C/C(CC(=O)Nc1ccc(F)cc1)=N\NC(=O)c1ccccn1 | -12% | nt | -1% | 3% | nt | ? | 35%[activator] | nt
O=C(Cn1nnc(-c2ccc3c(c2)OCO3)n1)NCc1ccco1 | -8% | 4.7% | 5% | -9%[46.1 µM] | -7% | 6% | 31%[activator] | ?
CCOC(=O)c1c(NC(=O)CSc2nc(C)cc(C)c2C#N)sc(C(C)=O)c1C | 0% | 0.3% | -3% | -7%&-7% | 13% | 0% | ? | 0%
Cc1noc(NS(=O)(=O)c2ccc(N/C=C/C(=O)c3cccnc3)cc2)c1C | 4% | -9.3% | -7% | 6% | -16% | 22% | nt | -19%
O=C(Nc1ccccc1C(=O)N1CCOCC1)c1ccc(Cl)cc1 | -2% | nt | 0% | nt | nt | nt | -12% | 4%
CC1NC(=O)N(C)[C@@H]2NC(=O)N(C)C(c3ccc([N+](=O)[O-])cc3)[C@@H]12 (some centres undefined) | -5% | nt | 2% | nt | nt | nt | 0% | 0%
COc1ccccc1-c1csc(NC(=O)c2ccc(N3C(=O)CCC3=O)cc2)n1 | -7% | nt | 0% | nt | nt | nt | 18µM* | -10%
COc1ccc(NC(=O)c2c(-c3ccc(C)cc3)nnc3ccccc23)cc1Cl | nt | 1.5% | nt | nt | ? | -4%[46.1 µM] | 2% | nt
COCCN(CC(=O)Nc1cccc(C)c1C)C(=O)Cn1cnc2ccccc2c1=O | 5% | nt | 9% | -1% | nt | -13% | 3% | nt
COc1ccccc1C(=O)N(c1ccc(C)cc1)S(=O)(=O)c1ccc(Cl)cc1 | nt | -5.8% | nt | nt | -15% | ? | -7% | nt
Cc1ccc(-c2nonc2NC(=O)c2ccc(F)cc2)cc1C | nt | -5.4% | nt | 5%[46.1 µM] | 3% | -1%[46.1 µM] | -20% | nt
COc1ccc(C(=O)N2CCC(c3nc4ccccc4o3)CC2)cc1 | nt | -1.4% | nt | 4%[46.1 µM] | 14% | 0%[46.1 µM] | -6% | nt
CC(C)OC(=O)Nc1ccc(N=C(N)N[N+](=O)[O-])cc1 | -7% | nt | 1% | 10%[46.1 µM] | nt | -13%[46.1 µM] | -3% | nt
O=C1NC(c2ccco2)Nc2ccccc21 (centres undefined) | 19% | -3.2% | 6% | 10% | 6% | 13% | -13% | -4%
Cc1ccc(-c2cc(C(F)(F)F)n3ncc(C(=O)N4CCN(C)CC4)c3n2)cc1 | 7% | -1.0% | 6% | ? | -5% | 14% | -13% | 10%
CCCCCCCCCC(=O)N1c2ccccc2NC(=O)C1CC(=O)Nc1ccc(C(=O)O)cc1 (centres undefined) | 1% | nt | 0% | 4%[46.1 µM] | nt | 23% | 8% | 4%
O=C(Cn1c(=O)oc2ccc(Cl)cc21)Nc1ccon1 | -4% | nt | -5% | nt | nt | nt | 2% | 9%
CNC(=O)NC(=O)CSc1cccc(C(F)(F)F)c1 | 5% | -0.4% | -6% | 7% | -3% | 9% | nt | -10%
Cc1nc2ccccc2c2oc(C(=O)N3CCC(C)CC3)cc12 | -1% | nt | -15% | nt | nt | nt | 1% | -18%
O=C(c1cc(F)c(F)cc1Cl)N1CCOCC1 | -8% | 13% | 0% | -10%[46.1 µM] | -7% | 7% | -23% | 5%

Some entries already given, showing only SARS PLpro yeast, 2A StopGo and LASV entry inh.
Structure	SARS PLpro yeast	2A StopGo	LASV entry inh
Cc1nnc(SCC(=O)NCc2ccco2)n1Cc1ccccc1	-3%	-12%	11%
Cc1cccc(CN2C(=O)NC(c3ccccc3)(c3ccccc3)C2=O)c1	-6%	-25%	?
CCOC(=O)c1c(C)nc2c(c1-c1ccc(Cl)cc1)C(=O)CC(C)(C)C2	10%	0%	?
S=C(NCCc1ccccc1)N1CCc2ccccc2C1	-3%	43%[activator]	4%

2 entries picked at random from those above:
SMILES | RE007 growth inh | Cruzain inh Det | SARS PLpro yeast | Marburg entry inh | Cruzain inh noDet | LASV entry inh | 2A StopGo | NS1 function inh
COc1ccc(NC(=O)Nc2ccccc2SC)cc1 | -15% | nt | -2% | ? | nt | 2%[46.1 µM] | 32%[activator] | -8%
CC(C)CN(C(=O)COC(=O)c1ccc2c(c1)OCCO2)c1c(N)n(Cc2ccccc2)c(=O)[nH]c1=O | 1% | nt | -7% | -1% | nt | -24% | -1% | nt
